Assay outcomes deposited in PubChem BioAssay by National Center for Advancing Translational Sciences (NCATS).
Fluorescein fluor: qHTS Assay for Spectroscopic Profiling in Fluorescein Spectral Region | max fluorescein-equivalent concentration, M | AID 593, 2007 | 0.91% of 59,000 active | Compound autofluorescence, 480/540 nm, fluorescein-equivalent; active compounds read high; in the data active means max fluorescein-equivalent concentration above about 10 nM; inconclusive means between about 1.1 nM and that limit
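Values reflect compound autofluorescence, normalized to fluorescein on the same plate and reported at each tested concentration. Conditions: 100 mM Tris pH 8.0, room temperature, 15 min, excitation 480 nm, emission 540 nm.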
USP2a inh: qHTS Assay for Inhibitors of Ubiquitin-specific Protease USP2a. Ubiquitin carboxyl-terminal hydrolase 2 (Homo sapiens), O75604. USP2a enzymatic assay, qHTS inhibition. Potency, µM (titrated, usually from 38.3 µM), for inactives: at the top dose activity change, negative = inhibition, hits mostly inhibitors. 0.1% of 60,000 active;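 further: potency means the concentration at half of the fitted maximal effect; nearly all actives have a fitted effect of over 60% in size; plate controls were DMSO for no effect and NEM full inhibition control for full effect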
Target sequence (O75604 whole entry, looked up): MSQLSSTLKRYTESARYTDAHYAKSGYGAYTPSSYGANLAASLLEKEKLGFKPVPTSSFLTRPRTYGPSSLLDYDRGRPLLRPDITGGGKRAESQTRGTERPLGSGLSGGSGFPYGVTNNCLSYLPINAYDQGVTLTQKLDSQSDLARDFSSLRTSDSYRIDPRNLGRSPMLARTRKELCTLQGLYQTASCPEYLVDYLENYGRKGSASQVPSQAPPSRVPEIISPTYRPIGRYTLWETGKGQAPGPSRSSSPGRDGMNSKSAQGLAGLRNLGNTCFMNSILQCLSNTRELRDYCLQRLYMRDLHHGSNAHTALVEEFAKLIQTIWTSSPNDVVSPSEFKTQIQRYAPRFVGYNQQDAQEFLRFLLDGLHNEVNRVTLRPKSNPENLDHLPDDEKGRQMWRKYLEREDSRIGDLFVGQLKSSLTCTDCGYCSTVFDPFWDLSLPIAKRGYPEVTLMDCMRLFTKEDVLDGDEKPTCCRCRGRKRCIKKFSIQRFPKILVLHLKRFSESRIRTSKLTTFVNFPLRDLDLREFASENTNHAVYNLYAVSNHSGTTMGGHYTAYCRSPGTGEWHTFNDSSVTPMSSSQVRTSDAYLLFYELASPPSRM
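USP2 core (20nM final) preincubated 30 min RT with compound, then Ub-PLA2 20nM and NBD C6-HPC 20uM final added; buffer 20mM Tris-HCl pH 8.0, 2mM CaCl2. Fluorescence Ex 460/Em 535 read at 0 and 2.5 h; normalized to NEM.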
Rhodamine autofl: qHTS Assay for Spectroscopic Profiling in Rhodamine Spectral Region; AID 594, 2007; max dye-equivalent concentration, M; Rhodamine-region fluorescence, 547/598 nm, Tris buffer; active compounds read high; 0.05% of 59,000 active; in the data active means max dye-equivalent concentration above about 11 nM; inconclusive means between about 1.1 nM and that limit
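Intrinsic compound fluorescence, ex 547 / em 598 nm, CCD imager. Tris 100 mM pH 8.0; 15 min RT. Output = rhodamine dye-equivalent concentration at each compound concentration.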
HEK293 cAMP ctrl: qHTS Assay for Agonists of the Thyroid Stimulating Hormone Receptor: Activators of Intracellular cAMP Concentrations in Parental HEK 293; parental HEK293 CNG cAMP sensor, membrane potential fluorescence; Potency, µM (series often up to 57.1 µM), for inactives: at the top dose activation, usual class: activators; 2.5% of 73,000 active; further: potency means the concentration at half of the fitted maximal effect; % of control where 0% means no effect; nearly all actives have a fitted effect of over 55% in size
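Counterscreen for endogenous-receptor signalling: CNG-channel HEK 293 cells report cAMP rise by membrane depolarization. After 60 min dye equilibration with 100 uM RO 20-1724, compounds incubated 30 min before bottom-read fluorescence at 590 nm.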
TexasRed autofl: qHTS Assay for Spectroscopic Profiling in Texas Red Spectral Region; Compound fluorescence, Texas Red channel, 547/618 nm; active compounds read high; max dye-equivalent concentration, M; 0.06% of 59,000 active; in the data active means max dye-equivalent concentration above about 10 nM; inconclusive means between about 1.1 nM and that limit
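Texas Red-region profiling: compounds in 100 mM Tris pH 8.0 were read at 547/618 nm after 15 min at room temperature. Intensities were normalized against a six-point Texas Red standard series to give dye-equivalent concentration.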
BRCT PPI green: qHTS Assay for Inhibitors of BRCT-Phosphoprotein Interaction (Green Fluorophore); Breast cancer type 1 susceptibility protein (Homo sapiens), P38398; BRCA1 BRCT-phosphopeptide binding, green fluorescence polarization; Potency, µM (titrated, usually from 76.9 µM), for the others: at the highest dose activity change, negative = inhibition, usual class: inhibitors; 0.05% of 75,000 active; AID 875, 2007;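 further: potency means the concentration at half of the fitted maximal effect; plate controls were peptide without protein for full effect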
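Fluorescence polarization: His-tagged BRCT (~35 kDa BRCA1 C-terminus, 250 nM) bound to 100 nM fluorescein-labeled phosphorylated 10-aa BACH1 peptide, pH 7.3 phosphate buffer with DTT and Tween 20. Compounds incubated 12 min at room temperature; inhibition read as lowered polarization.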
BRCT PPI red: qHTS Assay for Inhibitors of BRCT-Phosphoprotein Interaction (Red Fluorophore). 0.03% of 75,000 active. AID 892, 2007. Potency, µM (top dose mostly 76.9 µM), inactives show top-dose activity change, negative = inhibition, hits mostly inhibitors. BRCT-phosphopeptide binding, red fluorescence polarization. Breast cancer type 1 susceptibility protein (Homo sapiens), P38398; further: on the % scale 0 is the no-effect control and ±100 the full control effect
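Rhodamine-labelled pBACH1 10-mer (100 nM) bound to BRCT domain (100 nM) at pH 7.3; compounds incubated 12 min room temperature, polarization read. Free peptide defines full inhibition; unlabelled decapeptide titrated as control.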
The depositor's hits bear a star; i = inactive; ? = inconclusive; · = no result given; [ ] = remark or other dose. Unless noted, the call rests on the fitted dose curve; in most records, active means well fitted curve in the direction sought with a large enough effect; inconclusive means small, poorly fitted or top-dose-only effect, or another doubt; inactive means no such curve, though single readings can be large; an effect the other way counts as inactive or inconclusive.

SMILES	Fluorescein fluor	USP2a inh	Rhodamine autofl	HEK293 cAMP ctrl	TexasRed autofl	BRCT PPI green	BRCT PPI red
CC(C)Cn1c(N)c(C(=O)NCc2cccs2)c2nc3ccccc3nc21	i	-14%	i	13%	i	6.0%	-2.1%
COc1ccc(-n2c(=O)c(-c3cccs3)nc3cnc(Nc4cccc(OC)c4)nc32)cc1	?	87%[activator]	i	?	i	26%	0.0%
N#CCCn1c(=O)c(-c2cccs2)nc2cnc(OCc3ccccc3)nc21	?	69%[activator]	i	12%	i	-0.1%	0.5%
CCCn1c(=NC(=O)c2ccco2)c(C(=O)OCC)cc2c(=O)n3ccccc3nc21	i	17%	i	-14%	i	-1.7%	1.1%
O=c1c(-c2cc(F)cc(F)c2)nc2cnc(Nc3ccccc3)nc2n1C[C@H]1CCCO1	?	164%[activator]	i	6%	i	-1.8%	0.6%
COc1ccc2nc(N3CCCC(O)C3)c(C#N)cc2c1 (stereo not given)	1.6e-08M*	2%	i	2%	i	-4.4%	0.0%
COc1cc2cc(CN(Cc3nnnn3Cc3ccco3)C3CCCCC3)c(=O)[nH]c2cc1OC	?	245%[activator]	i	28%	i	-0.1%	-3.6%
CCc1nnc(NC(=O)CSc2nc3c(cc2C#N)CCC3)s1	i	-3%	i	6%	?	-0.7%	-1.0%
COCCn1c(=O)c(-c2cccs2)nc2cnc(OCc3ccccc3)nc21	i	27%	i	13%	i	-0.3%	-1.2%
COc1cccc(Nc2ncc3nc(-c4cc(F)cc(F)c4)c(=O)n(CCC#N)c3n2)c1	?	190%[activator]	i	-55%[inhibitor]	i	28%	0.5%
c1coc(-c2nc3ccccc3nc2-c2ccco2)c1	i	20%	i	?	i	-3.1%	-3.0%
O=c1c(-c2ccc(F)cc2)nc2cnc(Nc3ccccc3)nc2n1Cc1cccs1	?	171%[activator]	i	9%	i	33%[activator]	-1.2%
CC(C)(C)n1nnnc1C(c1cc2cc3c(cc2[nH]c1=O)OCO3)N1CCN(c2ccccc2)CC1 (stereo not given)	?	26%	i	7%	i	-0.8%	0.2%
Cn1ccnc1-c1nc2ccccc2[nH]c1=O	i	-1%	i	2%	i	-1.1%	1.3%
COc1ccc2c(c1OC)C(=O)N1C(C(=O)O)Cc3c([nH]c4ccccc34)C21 (stereo not given)	?	-2%	i	23%	i	-2.0%	-0.9%
COc1ccc(-c2nc3cnc(N4CCNCC4)nc3n(CCC#N)c2=O)cc1	i	36%[activator]	i	?	i	-2.0%	-0.6%
O=C(c1ccco1)N1CCN(C(=O)c2cnn3c(C(F)(F)F)cc(-c4cccs4)nc23)CC1	i	26%	i	7%	i	-0.5%	0.9%
COC(=O)C1=C(C)NC2=C(C(=O)CC(C)(C)C2)C1c1cccc(C)n1 (stereo not given)	i	2%	i	5%	i	-2.9%	0.3%
CN1CCN(c2ncc3nc(-c4ccc(Cl)cc4)c(=O)n(C)c3n2)CC1	i	95%[activator]	i	8%	i	-2.7%	-1.0%
Cc1ccc(N)cc1-n1c(C)ccc1C	?	13%	i	-11%	?	0.4%	-0.4%
Cc1nc2[nH]c(=O)c3c(n2n1)NC1=C(C(=O)CC(C)(C)C1)C3c1ccccc1 (stereo not given)	?	?	i	13%	i	0.3%	-0.3%
Cc1ccc(-c2[nH]c(=O)n3ccncc23)s1	i	-9%	i	-13%	?	-0.4%	0.5%
COc1ccc(C2NC(=O)NC3=C2CCc2ccccc23)cc1 (stereo not given)	i	1%	i	1%	i	-0.5%	0.7%
COC(=O)Cc1c(C)c2cc(Cl)c(OC(=O)c3ccco3)cc2oc1=O	i	3%	i	6%	i	-1.5%	-0.1%
O=c1c(-c2cc(F)cc(F)c2)nc2cnc(N3CCNCC3)nc2n1Cc1ccc(F)cc1	i	147%[activator]	i	-16%	i	1.7%	0.7%
CN(C)c1ccc(-c2nn3c(-c4ccccc4Cl)nnc3s2)cc1	?	18%	i	?	?	-1.9%	-1.5%
Cc1cc(C)n2c3c(c(C#N)c2n1)CCCC3	?	1%	i	3%	i	-1.5%	-1.0%
CN(C)c1ncc2ncc(=O)n(C3CC3)c2n1	?	-11%	i	8%	?	0.8%	-1.5%
NC(=O)C1(N2CCCCC2)CCN(C(=O)c2cccn3c(=O)c4cc(Cl)ccc4nc23)CC1	?	40%[activator]	i	1%	i	1.7%	-0.2%
COc1ccc(Oc2ncc3nc(-c4ccccc4)c(=O)n(Cc4cccs4)c3n2)cc1	i	132%[activator]	i	?	i	-1.3%	-1.5%
COC(=O)C1=CN(C)C=C(C(=O)OC)C1c1ccccc1Cl	i	6%	i	?	i	-0.4%	0.0%
CC1(C)CC(=O)C2=C(C1)N(CCN1CCOCC1)C1=C(C(=O)CC(C)(C)C1)C2c1ccc(Cl)cc1	i	13%	i	17%	?	-1.3%	-0.1%
COc1ccc(-n2c(=O)c(C)nc3cnc(N4CCNCC4)nc32)cc1	?	109%[activator]	i	25%	i	1.7%	-3.6%
COc1ccc(C2C=C(c3ccccc3)Nc3nc(CCCO)nn32)cc1 (stereo not given)	?	17%	i	28%	i	-4.8%	-0.3%
COc1ccc2[nH]c(=O)c(CN(Cc3nnnn3Cc3ccco3)C3CCCCC3)cc2c1	?	226%[activator]	i	20%	i	-14%	-9.6%
CCN(C)c1ccc(/C=N\n2nnnc2N)cc1	i	0%	i	5%	i	-1.9%	-0.9%

Limited to HEK293 cAMP ctrl, for some of the entries so far:
| Compound | HEK293 cAMP ctrl |
| --- | --- |
| O=c1c(-c2cc(F)cc(F)c2)nc2cnc(N3CCNCC3)nc2n1Cc1ccc(F)cc1 | -16% |
| CN(C)c1ccc(-c2nn3c(-c4ccccc4Cl)nnc3s2)cc1 | ? |

Pulled by structure from the entries so far:
SMILES	Fluorescein fluor	USP2a inh	Rhodamine autofl	HEK293 cAMP ctrl	TexasRed autofl	BRCT PPI green	BRCT PPI red
COc1ccc(Oc2ncc3nc(-c4ccccc4)c(=O)n(Cc4cccs4)c3n2)cc1	i	132%[activator]	i	?	i	-1.3%	-1.5%
CN(C)c1ccc(-c2nn3c(-c4ccccc4Cl)nnc3s2)cc1	?	18%	i	?	?	-1.9%	-1.5%
CCN(C)c1ccc(/C=N\n2nnnc2N)cc1	i	0%	i	5%	i	-1.9%	-0.9%

Following part:
SMILES	Fluorescein fluor	USP2a inh	Rhodamine autofl	HEK293 cAMP ctrl	TexasRed autofl	BRCT PPI green	BRCT PPI red
COc1ccc(-c2cc3ccc(OCc4nn[nH]n4)cc3oc2=O)cc1OC	i	2%	i	6%	i	-2.4%	-0.7%
CN(C)c1ncc2nc(-c3ccc(Cl)cc3)c(=O)n(C[C@H]3CCCO3)c2n1	i	43%[activator]	i	15%	i	0.5%	0.9%
CCOC(=O)c1cc2c(=O)n3ccccc3nc2n(CC2CCCO2)c1=NC(C)=O (stereo not given)	i	4%	i	3%	i	-1.3%	0.8%
Cc1ncc(C[n+]2csc(CCO)c2C)c(N)n1	i	3%[17.1 µM]	i	10%[25.6 µM]	i	-0.6%[34.4 µM]	0.2%[34.4 µM]
O=c1c(-c2ccc(F)cc2)nc2cnc(N3CCNCC3)nc2n1Cc1ccc(F)cc1	i	126%[activator]	i	?	i	-2.6%	-0.1%
CN1CCc2c(sc3c2C(=O)NC(c2cn(Cc4ccccc4)c4ccccc24)N3)C1 (stereo not given)	?	20%	i	-4%	i	29%	1.5%
CC(=O)Nc1nc2ccccc2n1CCN1CCOCC1	i	-5%	i	-2%	i	-0.9%	3.0%
CCCNC(=O)c1c(N)n(-c2cc(OC)cc(OC)c2)c2nc3ccccc3nc12	i	38%[activator]	i	15%	i	-1.9%	0.5%
CN(C)c1ncc2ncc(=O)n(CCc3ccccc3)c2n1	i	0%	i	13µM*	i	-1.3%	1.5%
CNC(=O)c1cc2c(=O)n3cccc(C)c3nc2n(C(C)C)c1=N	i	-4%	i	-9%	i	-1.8%	0.1%
O=C(O)COCCN1CCN(C(c2ccccc2)c2ccc(Cl)cc2)CC1 (stereo not given)	·	8%	·	·	·	-1.3%[3.08 µM]	0.7%
CN(C)c1ncc2nc(-c3ccc(Cl)cc3)c(=O)n(-c3ccccc3)c2n1	?	153%[activator]	i	14%	i	-1.5%	-0.4%
Cc1cc(C(=O)COc2cccc3cccnc23)c(C)n1C	i	9%	i	14%	i	?	-6.4%
Cc1nc2nc(-c3cccs3)cn2nc1C	6e-08M*	41%[activator]	i	-5%	i	-14%	0.4%
CCNc1ncc2nc(-c3ccc(F)cc3)c(=O)n(CCOC)c2n1	?	47%[activator]	i	9%	i	1.8%	-1.0%
O=c1c(-c2ccc(Cl)cc2)nc2cnc(N3CCNCC3)nc2n1CCc1ccccc1	?	142%[activator]	i	-5%	i	-3.6%	0.1%
O=C(COc1ccc2c(c1)C(=O)CC1(CCCCC1)O2)NCc1ccccn1	i	10%	i	13%	i	-1.9%	-0.5%
O=c1c(-c2cccs2)nc2cnc(Oc3cccc(Cl)c3)nc2n1C[C@H]1CCCO1	i	70%[activator]	i	?	i	2.3%	-0.8%
Cn1c(=O)c(-c2cc(F)cc(F)c2)nc2cnc(N3CCNCC3)nc21	i	41%[activator]	i	19%[0.457 µM]	i	-1.9%	0.7%
COC(=O)C1=CN(C(C)C)C=C(C(=O)OC)C1c1cc2c(cc1Br)OCO2	?	30%	i	-17%	i	-9.3%	0.5%
CCNc1ncc2nc(C)c(=O)n(CCOC)c2n1	i	-15%	i	?	i	-2.4%	-1.6%
O=c1c2cc(N3CCOCC3)ccc2[nH]c(=S)n1CC1CCCO1 (stereo not given)	i	2%	i	-2%	i	-2.5%	-1.4%
Cc1cc(C(=O)OCCO)c(C#N)c(N)n1	i	6%	i	5%	?	-2.7%	-0.3%
Cn1c2ccccc2c(=O)n2c(=O)c3ccccc3cc12	3.9e-08M*	17%	i	0%	i	-7.1%	-1.6%
CN1CCN(c2ncc3nc(-c4cccs4)c(=O)n(CCC#N)c3n2)CC1	?	169%[activator]	i	9%	i	-3.6%	0.6%
Cc1ccccc1CS(=O)(=O)CCC(=O)N1CCN(c2ccc(N3CCOCC3)nn2)CC1	i	-1%	i	7%[2.29 µM]	i	-1.1%	-0.8%
CC(=O)Nc1c(OC(C)=O)ccc2c(C)cc(=O)oc12	i	-18%	i	1%	i	-2.7%	1.1%
COCCn1c(=O)c(-c2cc(F)cc(F)c2)nc2cnc(OCc3ccccc3)nc21	i	-3%	i	4%	i	-2.6%	-0.5%
CCOC(=O)CC(=O)CSc1nc(C)nc2c1oc1ccccc12	i	28%	i	21%	?	5.0%	1.4%

These rows are one share of the data; the hit share may differ from the screen's.
